SARS PLpro yeast: SARS-CoV PLP inhibition in yeast; S. cerevisiae expressing SARS-CoV PLpro, growth rescue; control for the full effect not named in the record; actives 0.19% (n = 330,000); Potency, µM (highest dose often 32.9 µM), for inactives: top-dose activity, positive = growth rescue; also: 0% is about no effect; nearly all actives have a fitted effect of over 55% in size; growth read by luminescence after 48 h
Cruzain noTriton: cruzain (T. cruzi) inhibition without detergent; purified cruzain, Z-FR-AMC fluorescence, no detergent; Potency, µM, for the others: max response, negative = inhibition, hits mostly inhibitors; actives 2.3% (n = 200,000); active = well fitted curve in the direction sought with a large enough effect; inconclusive = small, poorly fitted or top-dose-only effect, or another doubt; inactive = no such curve, though single readings can be large; an effect the other way counts as inactive or inconclusive;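 also: plate controls were enzyme without inhibitor for no effect and buffer without enzyme for full effect; nearly all actives have a fitted effect of over 40% in size; top concentration of the series not given in the record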
Target sequence (P25779 123-467 limits assumed): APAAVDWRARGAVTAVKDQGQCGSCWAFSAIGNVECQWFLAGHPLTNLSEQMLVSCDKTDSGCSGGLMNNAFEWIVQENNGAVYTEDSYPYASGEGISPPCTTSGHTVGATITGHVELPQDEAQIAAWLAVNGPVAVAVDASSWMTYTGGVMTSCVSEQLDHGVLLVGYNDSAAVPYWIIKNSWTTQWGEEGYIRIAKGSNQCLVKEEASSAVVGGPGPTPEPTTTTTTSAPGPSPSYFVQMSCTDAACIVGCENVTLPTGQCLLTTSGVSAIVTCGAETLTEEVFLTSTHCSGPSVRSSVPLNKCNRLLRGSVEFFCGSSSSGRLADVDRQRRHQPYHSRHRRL
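Purified cruzain at 1.5 nM, pre-incubated 15 min with compound at room temperature in 100 mM sodium acetate pH 5.5, 5 mM DTT, 0.00005% Triton X-100. Reaction started with 2 uM Z-FR-AMC; AMC fluorescence increase over 60 s gives rate.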
Cruzain Triton: blocks cruzain activity in presence of Triton detergent | Potency, µM, without a hit: max response, negative = inhibition, most hits filed as inhibitors | actives 0.43% (n = 200,000) | purified cruzain, Z-FR-AMC fluorescence, 0.01% Triton; active = well fitted curve in the direction sought with a large enough effect; inconclusive = small, poorly fitted or top-dose-only effect, or another doubt; inactive = no such curve, though single readings can be large; an effect the other way counts as inactive or inconclusive;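 also: plate controls were neutral wells for no effect and buffer without enzyme for full effect; nearly all actives have a fitted effect of over 40% in size; top concentration of the series not given in the record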
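Steps: dispense cruzain (1.5 nM final) in acetate buffer pH 5.5 with DTT and 0.01% Triton X-100; pin-transfer compounds; incubate 15 min RT; add Z-FR-AMC (2 uM final); read fluorescence every 30 s, using the 60 s intensity change.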
Lassa entry inh: inhibitors of Lassa virus binding or cell entry; Lassa virus pseudotype entry inhibition, cell reporter; control for the full effect not named in the record; Potency, µM (doses to about 37.9 µM), inactives show at the highest dose activity change, negative = inhibition, actives largely listed as inhibitors; actives 1.2% (n = 300,000); active means well fitted inhibition curve with a large enough effect; inconclusive means small, poorly fitted or top-dose-only effect, or effect the other way; inactive means flat fitted curve, though single readings scatter; tested in HEK293 cells; also: % is scaled to controls: 0 for no effect and ±100 for the full control effect; nearly all actives have a fitted effect of over 50% in size; luciferase read-out
RE007 growth inh: less growth of the S. pombe RE007 Vpr strain. S. pombe RE007 Vpr strain, BacTiter-Glo ATP luminescence, 24 h; control for the full effect not named in the record. Potency, µM (top dose mostly 92.2 µM), inactives show at the top dose activity change, negative = less growth. actives 0.21% (n = 360,000). AID 651644; active = well fitted falling curve with a large enough effect; inconclusive = small, poorly fitted or top-dose-only effect; inactive = no such curve, though single readings can be large or run the other way;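 also: % is scaled to controls: 0 for no effect and ±100 for the full control effect; nearly all actives have a fitted effect of over 50% in size; the assay follows cell death caused by Vpr and the record does not say whether a fall means rescue or toxicity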
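Fission yeast RE007 carrying one integrated HIV-1 vpr copy, seeded at OD 0.01 in PMG+AL medium with 23 nL pinned compound. Grown 24 h at 30 degrees; viability read by BacTiter-Glo luminescence after 5 min.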
2A StopGo: lowers the luciferase signal of an FMDV 2A StopGo reporter. human cells with a luciferase reporter of 2A StopGo recoding; control for the full effect not named in the record. Potency, µM (top dose mostly 57.9 µM), for the others: at the top dose signal change, negative = less light. actives 1.2% (n = 410,000). AID 1159524; active = well fitted falling curve with a large enough effect; inconclusive = small, poorly fitted or top-dose-only effect; inactive = no such curve, though single readings can be large or run the other way; tested in HEK293T cells; also: % is scaled to controls: 0 for no effect and ±100 for the full control effect; nearly all actives have a fitted effect of over 45% in size; luciferase light after 4 h
MARV entry inh: blocks Marburg virus binding to or entry into cells. Potency, µM (titrated, usually from 37.8 µM), for the others: top-dose activity change, negative = inhibition, actives largely listed as inhibitors. AID 540276. actives 1.8% (n = 300,000). Marburg virus pseudotyped entry inhibition, cell reporter; control for the full effect not named in the record; about a third of the inactives were read at about 46 µM; active = well fitted inhibition curve with a large enough effect; inconclusive = small, poorly fitted or top-dose-only effect, or effect the other way; inactive = flat fitted curve, though single readings scatter; tested in HEK293 cells; about a fifth of its hits are not listed in these tables; also: % is scaled to controls: 0 for no effect and ±100 for the full control effect; luciferase read-out
NS1 function inh: inhibitors of influenza NS1 protein function | actives 0.4% (n = 270,000) | S. cerevisiae slowed by influenza A NS1, growth recovery by OD600 | Potency, µM (highest dose often 46.1 µM), for the others: at the top dose activity, positive = more growth | AID 2326; also: actives are rising curves; nearly all actives have a fitted effect of over 50% in size
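Recovery from NS1-induced slow growth read by OD600 in budding yeast switched to galactose assay medium (pH 6.0, -URA) at 1:100 dilution. Compound 23 nl per well; the matching strain lacking NS1 serves as control.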
An asterisk follows results filed as active; ? = inconclusive; . = not tested or not shown; & = joins results of further samples; [ ] = another dose, or the depositor's remark. Unless noted, calls follow the shape of the dose curve; as a rule, active means well fitted rising curve with a large enough effect; inconclusive means small, poorly fitted or top-dose-only effect; inactive means no such curve, though single readings can be large or run the other way. Potency is read from the fitted curve at half-maximal effect.

SMILES	SARS PLpro yeast	Cruzain noTriton	Cruzain Triton	Lassa entry inh	RE007 growth inh	2A StopGo	MARV entry inh	NS1 function inh
CCOc1c(Cl)cc(CNc2nnnn2C)cc1OC	-6%	.	.	3%[46.1 µM]	46%	-4%	4%[46.1 µM]	22%
CCOC(=O)c1c(-c2ccccc2)csc1NC(=O)c1ccc(S(=O)(=O)N2CC(C)OC(C)C2)cc1 (stereo not drawn)	1%	-8%	-2.8%	0%	2%	8%	-3%	9%
CC1(C)CC(=O)C(C(c2ccccc2F)C2C(=O)CC(C)(C)CC2=O)C(=O)C1	-2%	4%	1.4%	-4%	-11%	-23%	11%	-7%
Cc1ccc2c(c1)CCCN2C(=O)Nc1ccc2c(c1)OCO2	-4%	-10%	-2.0%	2%	16%	14%	3%[46.1 µM]	-54%
CCOc1ccc2nc(/N=C/c3nc(-c4ccc(Br)cc4)oc3O)sc2c1	2%	7.9µM*	1.6%	0%	-5%	12%	7%	2%
COCCCn1c(SCc2cccc(OC)c2)nc2cc(OC)c(OC)cc2c1=N	-6%	?	-9.9%	?	4%	?	-23%	14%
O=C(CCN1C(=O)c2cccc([N+](=O)[O-])c2C1=O)NC1CCCCCC1	4%	.	.	22%	5%	-19%	?	.
CCCc1cc(=O)[nH]c(SCC(=O)NCCN2C(=O)CSC2=O)n1	0%	.	.	17%	3%	-18%	4%	.
CCCCc1ccc(NC(=S)N2CCN(C(=O)c3ccco3)CC2)cc1	-8%	.	.	?	?	-20%	-22%	-33%
CCc1cc2c(=O)n(Cc3ccccc3)c(SC3CCOC3=O)nc2s1 (stereo not drawn)	1%	.	.	5%	3%	2%	4%	.
Cc1ccc(SCC(=O)NCc2ccc(F)cc2)cc1	0%	.	.	?	-1%	11%	-2%[46.1 µM]	-6%
NC(=O)Nc1ccc(C(=O)OCC(=O)Nc2ccc(Cl)cc2C(=O)c2ccccc2)cc1	4%	-7%	-7.0%	-7%	32%	-3%	3%	20%
CN(C)S(=O)(=O)c1cccc(NC(=O)CSc2nncn2-c2ccccc2)c1	2%	.	.	.	0%	?	.	2%
COC(=O)c1cn(CC(=O)NC2CCCCC2)c2ccccc12	0%	?	4.6%	?	-12%	17%	-4%	-7%
CCN(CC)S(=O)(=O)c1cccc(NC(=O)COC(=O)/C=C/c2cccs2)c1	2%	.	.	-10%	5%	-26%	3%[46.1 µM]	11%
CC1CCCC(C)N1C(=O)COC(=O)CCC1CCCC1 (stereo not drawn)	1%	.	.	9%[46.1 µM]	-2%	19%	-1%[46.1 µM]	-2%
CCCc1nc(SC)[nH]c(=O)c1C	1%	.	.	.	-7%	-9%	.	-1%
COc1ccc(NC(=O)CN(C)CC(=O)c2c(C)[nH]c3ccccc23)cc1	-3%	.	.	-14%	-5%	-12%	-3%	.
CN(C(=O)COC(=O)c1ccccc1C(=O)N(C)c1ccccc1)c1ccccc1	-5%	.	.	?	19%	7%	5%[46.1 µM]	-2%
O=[N+]([O-])C(/C=C(\Cl)[N+](=O)[O-])=C(N1CCCCC1)N1CCCCC1	-4%	.	.	-25%[46.1 µM]	-17%	13%	?	.
CC(C)(C)C(=O)Nc1ccc(C(=O)COC(=O)C2CC2)cc1	-1%	.	.	27%	-6%	17%	18%[46.1 µM]	.
COc1ccc(NC(=O)CNS(=O)(=O)c2cccs2)c(OC)c1	29%	-7%&-8%	-0.9%&3.3%	17%[46.1 µM]	-5%	22%	24%&24%	-3%
COc1ccc(C(=O)NC(C)c2nnc(SCC(=O)NC3=NCCS3)n2C)cc1 (stereo not drawn)	8%	.	.	13%[46.1 µM]	-17%	-8%	-4%[46.1 µM]	3%
COc1ccc(S(=O)(=O)Nc2ccccn2)cc1	11%	.	.	6%[46.1 µM]	13%	41%[activator]	4%[46.1 µM]	-15%
CCn1c(C)c(C)c2cc(C(=O)NCCCN3CCN(C)CC3)ccc21	-3%	.	.	24%[46.1 µM]	-6%	-15%	?	-7%
SMILES	SARS PLpro yeast	Cruzain noTriton	Cruzain Triton	Lassa entry inh	RE007 growth inh	2A StopGo	MARV entry inh	NS1 function inh
O=C(NCCC1CCCCN1S(=O)(=O)c1cccs1)C(=O)Nc1ccc(F)cc1 (stereo not drawn)	4%	.	.	?	0%	1%	?	.
CCS(=O)(=O)c1nc(S(=O)(=O)c2ccc(Cl)cc2)c(N2CCC3(CC2)OCCO3)s1	2%	.	.	.	-10%	-21%	.	-6%
Cc1cc(OC(C)C(=O)NCc2cccnc2)c2c3c(c(=O)oc2c1)CCC3 (stereo not drawn)	-2%	.	.	?	15%	1%	9%[46.1 µM]	5%
COc1ccc(NC(=O)Cc2nnc(SCC(=O)NC3=NCCS3)n2C)cc1	6%	.	.	.	-2%	19%	10%[46.1 µM]	16%
CN(CC(=O)NCCc1ccc(F)cc1)CC(=O)Nc1ccc(F)c(F)c1F	4%	.	.	15%	2%	-12%	-8%	.
CCN(CC)S(=O)(=O)c1ccc(NS(=O)(=O)c2ccc3oc(=O)[nH]c3c2)cc1	1%	.	.	18%[46.1 µM]	0%	31%[activator]	11%[46.1 µM]	-2%
CC(=O)C1C(c2ccncc2)NC(=O)NC1(O)C(F)(F)F (stereo not drawn)	-12%	1%	1.8%	1%	14%	8%	5%	3%
Cc1ccc(C)c(S(=O)(=O)N2CCN(C(=O)c3ccc(C)s3)CC2)c1	-9%	.	.	?	-16%	?	-14%	-38%
Cc1ccc(NC(=O)c2sc3nc(N4CCOCC4)c4c(c3c2N)CC(C)(C)OC4)cc1	-4%	.	.	.	-10%	-2%	.	-5%
CCOC(=O)COc1ccc(Oc2nc(C)cc(OC)n2)nn1	1%	-8%	5.6%	29%	-6%	-12%	20%&20%	23%
Cc1ccccc1NC(=O)CN1C(=O)N/C(=C\c2ccc(N3CCOCC3)c(F)c2)C1=O	0%	.	.	-14%	9%	-6%	-8%	5%
CCNC(=O)CN(c1ccc(OC)c(OC)c1)S(=O)(=O)c1ccccc1	2%	1%	3.4%	2%	23%	-5%	9%	4%
c1cnc2ccc3c(c2c1)COCO3	.	.	.	13%[46.1 µM]	-16%	-11%	28%	.
COc1ccc(/C=C(/NC(=O)c2ccccc2OC)C(=O)Nc2ccc(C(=O)O)cc2)cc1	-6%	.	.	13%	4%	-22%	?	17%
Cc1ccc(NC(=O)Cn2cc(S(=O)(=O)c3ccc(F)cc3)c(=O)c3cc4c(cc32)OCO4)cc1	.	-28%	-5.9%	-20%[46.1 µM]	.	-5%	?	.
CCCCNC(=O)c1c(N)n(/N=C/c2ccccn2)c2nc3ccccc3nc12	-5%	?	3.4%	.	.	.	.	?
COc1cccc(CN(C)C(=O)c2cc(-c3ccc(F)cc3)nc3ccccc23)c1	-1%	.	.	?	5%	-27%	?	10%
CON(C)c1nc(Oc2ccc(=O)[nH]n2)nc(N(C)C)n1	3%	-13%	-2.9%	20%	13%	13%	3%	?
Cc1occc1-c1nnc(SCC(=O)Nc2nccs2)n1CCc1ccccc1	4%	-8%	0.0%	0%	16%	-13%	-8%	-8%
Cc1cccc(N2CCN(C(=O)Cn3c(=O)c4cccn4c4ccc(F)cc43)CC2)c1C	.	17%	-3.7%	?	.	-5%	.	.
COc1ccccc1CNC(=O)c1ccc2nc(-c3ccccc3)c(-c3ccccc3)nc2c1	.	-13%	0.3%	27%[46.1 µM]	.	?	.	.
CC(=O)N1CCN(C(=O)c2cc(-c3cccc4ccccc34)nc3ccccc23)CC1	?	.	.	-14%	3%	-22%	?	-20%
O=C(Cc1ccccc1)Nc1cc([N+](=O)[O-])ccc1N1CCOCC1	0%	.	.	?	8%	-11%	?	-2%
COc1ccc(C(=O)N/C(=C/c2ccc(Cl)cc2)C(=O)Nc2ccc(C(=O)O)cc2)cc1	0%	.	.	2%	6%	-6%	3%	6%
CCn1c(NC(=O)c2nn(C)cc2Br)nc2ccccc21	1%	3%	-4.0%	?	2%	-8%	?	5%
SMILES	SARS PLpro yeast	Cruzain noTriton	Cruzain Triton	Lassa entry inh	RE007 growth inh	2A StopGo	MARV entry inh	NS1 function inh
C=C1N2CCC(CC2)C1(O)c1ccc(C)c(C)c1 (stereo not drawn)	-11%	-9%	2.2%	-13%	-4%	3%	-1%	2%
Cn1cccc1C(=O)NC(=O)COC(=O)c1ccc(O)cc1	4%	2%	0.8%	5%	1%	.	11%	10µM*
COc1nccnc1NS(=O)(=O)c1ccc(NC(=O)c2ccc(F)cc2)cc1	0%	.	.	-10%[46.1 µM]	6%	-9%	8%[46.1 µM]	-1%
COc1cccc(-n2c(SCC(=O)c3ccc(Cl)cc3)nc3c([nH]c4ccccc43)c2=O)c1	.	-27%	-3.0%	?	.	-8%	.	.
COc1ccc(N2CCC(CNC(=S)Nc3cccc(OC)c3)C2)cc1 (stereo not drawn)	6%	32µM*	-7.6%	-4%	.	.	2%	25%
CCN(C(=O)CSc1nnc(-c2ccncc2)o1)c1ccccc1	2%	.	.	.	4%	17%	.	4%
COC(=O)c1ccc(-c2ccc(CNCC(O)c3ccccc3)o2)cc1 (stereo not drawn)	-13%	15%	-7.4%	-16%	-5%	.	?	-44%
Cc1c(Cl)cccc1NC(=O)Nc1cc(C(C)(C)C)on1	-11%	.	.	.	?	28%	.	4%
CN(C)CCCNC(=O)C(=O)NCC1OCCN1S(=O)(=O)c1cc(F)ccc1F (stereo not drawn)	.	.	.	-6%	-9%	-6%	19%	.
CSc1ccc(CNC(=O)c2sc3ncnc(N(C)C4CCCCC4)c3c2C)cc1	.	-6%	-3.4%	1%[46.1 µM]	.	-16%	.	.
CCOC(=O)/C=C1\SCC(=O)N1CC(=O)NC(c1ccccc1)c1ccccc1	4%	?	1.1%	-22%	-21%	?	-24%	?
Cc1ccc2c(c1)C(O)(CC(=O)c1cccnc1)C(=O)N2 (stereo not drawn)	1%	-9%	-11%	25%	5%	0%	26%[46.1 µM]	4%
CN(C(=O)c1ccc(NC(=O)C2CC=CCC2C(=O)O)cc1)c1ccccc1 (stereo not drawn)	10%	-10%	-3.1%	-13%	-6%	-8%	14%	3%
O=C(COC(=O)c1nc(Cl)ccc1Cl)NNC(=O)c1cccs1	5%	.	.	15%	4%	-1%	21%	.

High-throughput results (PubChem BioAssay)
